Source: PubChem BioAssay
VDR inhibitor: vitamin D3 receptor (human) inhibition; P11473; VDR-SRC2-3 peptide fluorescence polarization, 2 h; Potency, µM, for inactives: max response, negative = inhibition, usual class: inhibitors; hit rate 0.93% among 400,000; AID 504847; active = well fitted inhibition curve with a large enough effect; inconclusive = small, poorly fitted or top-dose-only effect, or another doubt; inactive = no such curve, though single readings can be large or run the other way; also: series mostly up to about 120 µM
Target sequence (P11473 whole entry, looked up): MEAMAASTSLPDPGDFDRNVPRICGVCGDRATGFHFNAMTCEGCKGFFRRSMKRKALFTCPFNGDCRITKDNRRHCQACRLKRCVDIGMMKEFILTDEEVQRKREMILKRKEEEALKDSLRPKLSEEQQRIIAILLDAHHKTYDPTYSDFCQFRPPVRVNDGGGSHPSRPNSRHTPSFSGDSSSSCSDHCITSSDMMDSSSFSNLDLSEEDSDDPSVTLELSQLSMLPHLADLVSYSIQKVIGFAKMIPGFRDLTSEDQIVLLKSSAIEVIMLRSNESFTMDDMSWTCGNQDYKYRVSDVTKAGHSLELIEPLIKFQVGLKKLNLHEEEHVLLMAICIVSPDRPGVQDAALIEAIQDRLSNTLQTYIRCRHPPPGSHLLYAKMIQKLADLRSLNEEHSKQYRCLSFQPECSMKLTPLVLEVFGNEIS
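Signal is fluorescence polarization, reporting how far test compounds block the interaction of VDR with the SRC2-3 coregulator peptide after a 2 h room-temperature incubation.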
The depositor's hits bear a star; u = inconclusive. % is scaled to controls: 0 for no effect and ±100 for the full control effect; potency is read from the fitted curve at half-maximal effect. Not all compounds are listed. The share of hits here may be higher or lower than overall.

SMILES | VDR inhibitor
CC(C)OCC1CO1 (configuration not stated) | 4.7%
COc1ccc(S(=O)(=O)N2CCNCC2)cc1OC | 8.0%
COc1ccc(CCNC(=O)CCCn2c(=O)c3ccccc3n(Cc3ccccc3C#N)c2=O)cc1OC | 6.3%
CCC(C)c1cc(S(=O)(=O)N2CCOCC2)ccc1OC (configuration not stated) | 3.3%
CCCCS(=O)(=O)c1nc(-c2ccc(Br)cc2)cc(-c2ccccc2)c1C#N | -1.5%
CC(C)CCNC(=O)C(c1cccs1)N(CC1CCCO1)C(=O)Cn1nnc2ccccc21 (configuration not stated) | 5.9%
O=C(Nc1ccc2c(c1)OCO2)C1CC(=O)N(CCc2ccccc2)C1 (configuration not stated) | 10.7%
O=C1N[C@@H](c2ccccc2)COC(=O)[C@@H](Cc2ccc(F)cc2)C/C=C\C[C@@H]1CC(=O)N(CCO)Cc1ccccc1 | -5.6%
Cc1cccc(NC(=O)c2ccc(CNS(=O)(=O)c3ccc4c(c3)C(C)(C)C(=O)N4C)cc2)c1 | 2.1%
COc1cc(C(=S)N2CCN(c3cccc(Cl)c3)CC2)ccc1O | 39.8µM*
CC1(C)CC(=O)C2=C(C1)OC(N)=C(C#N)C2c1cc2c(cc1[N+](=O)[O-])OCO2 (configuration not stated) | u
O=C(CNC(=O)c1ccccc1F)NCCN1C(=O)S/C(=C\c2ccc3c(c2)OCO3)C1=O | -1.2%
COc1ccc(C2=CC(c3ccc(OC)c(OC)c3)n3nnnc3N2)c(OC)c1 (configuration not stated) | 3.5%
CC(=O)C1CCC2C3CCC4=CC(=O)CCC4(C)C3(Br)C(=O)CC12C (configuration not stated) | -29.2%
COc1ccc(C)cc1NC(=O)C1CCN(S(=O)(=O)c2cccs2)CC1 | 11.5%
Cc1ccc(C)c(S(=O)(=O)NCc2ccncc2)c1 | -10.8%
O=C(c1cccc(N2C(=O)C3C4C=CC(C4)C3C2=O)c1)N1CCN(c2ccc(F)cc2)CC1 (configuration not stated) | 15.7%
O=C(c1cccc(F)c1)N1CCC[C@@]2(CCN(Cc3ccncc3)C2)C1 | -17.5%
Fc1ccc(CSc2nnc(-c3cccnc3)n2Cc2ccco2)cc1 | -12.5%
COCCCN(C(=O)CCOc1ccc(C(C)(C)C)cc1)c1c(N)n(Cc2ccccc2)c(=O)[nH]c1=O | 1.1%
CCCCN1CC(=O)N2[C@H](c3ccc(OC)cc3)[C@@H]3C(=O)N(CC)C(=O)[C@@H]3[C@]2(C)C1=O | -2.5%
COCC(=O)N1CCCC(C(=O)c2ccc(-c3ccccc3)cc2)C1 (configuration not stated) | -7.6%
NC(N)=Nc1ccc(Cl)cc1 | 7.4%
COc1ccc(C(=O)N2CCN(c3ccc(C)cc3C)CC2)cc1OC | -2.2%
COc1ccc2c(c1)OC[C@H]1[C@H]2N2C(=O)CN(Cc3ccc(F)cc3)C(=O)[C@@]2(C)[C@H]1c1ccccc1 | u
CCCCCc1ccc(OCCCC[n+]2ccc(C)cc2)c(CCCCC)c1 | 0.0%
c1ccc2c(c1)NCCS2 | -10.4%
OC(COCc1cccs1)CN1CCCCCC1 (configuration not stated) | -3.0%
CCOC(=O)C1(Cc2ccccc2)CCN(Cc2cn[nH]c2-c2ccccc2)CC1 | -6.7%
CCC(O)(Cc1ccccn1)Cc1ccccn1 | -1.1%

Single values from the results shown:
`OC(COCc1cccs1)CN1CCCCCC1` (configuration not stated) @ VDR inhibitor: -3.0%
`COCCCN(C(=O)CCOc1ccc(C(C)(C)C)cc1)c1c(N)n(Cc2ccccc2)c(=O)[nH]c1=O` @ VDR inhibitor: 1.1%
`O=C(c1cccc(F)c1)N1CCC[C@@]2(CCN(Cc3ccncc3)C2)C1` @ VDR inhibitor: -17.5%
`Cc1ccc(C)c(S(=O)(=O)NCc2ccncc2)c1` @ VDR inhibitor: -10.8%

Among those listed so far, 2 contain a Cl atom:
SMILES | VDR inhibitor
COc1cc(C(=S)N2CCN(c3cccc(Cl)c3)CC2)ccc1O | 39.8µM*
NC(N)=Nc1ccc(Cl)cc1 | 7.4%

Continued.
SMILES | VDR inhibitor
O=C1CS/C(=N/N=C2C3CC4CC(C3)CC2C4)N1 | -6.4%
COCCCNC(=O)CC1C[C@H](C(=O)N2CCOCC2)[C@@]2(C)c3[nH]c4ccc(OC)cc4c3CCN2C1=O (some centres not stated) | 5.8%
COc1cc(NC(=O)NC(C)(C(F)(F)F)C(F)(F)F)cc(OC)c1OC | -0.9%
CCOc1ccccc1OCC(=O)NN=C1CCCC(=O)C1 | -5.0%
CC(C)NC(=O)C(c1ccc(F)cc1)N(C(=O)CCC(=O)Nc1ccccn1)c1cccc(F)c1 (configuration not stated) | 3.7%
O=C(N/N=C/c1cn(-c2cccs2)nc1-c1ccccc1)c1ccccc1Cl | -12.2%
COc1cccc(N2CC(NC(=O)/C=C\c3ccc4c(c3)OCO4)CC2=O)c1 (configuration not stated) | 19.1%
COC(=O)c1ccccc1NC(=O)CSc1c2c(nc3ccc(Cl)cc13)CCCC2 | -17.7%
COc1ccc(-c2cc(C(F)(F)F)nc(SCC(=O)Nc3ccc4c(c3)OCO4)n2)cc1 | -2.2%
C/C(N)=C(/C#N)C(=O)COC(=O)C1CCN(C(=O)c2ccc(Cl)cc2)CC1 | -14.6%
Cc1ccc(CN2CCN(/N=C/c3ccc(C(=O)O)cc3)CC2)c(C)c1 | 18.4%
CCOC(=O)c1sc(N/N=C/c2cccc(C)c2)nc1C | 3.3%
COC(=O)C1CCN(C(=O)COC(=O)c2ccc3[nH]c4c(c3c2)CCCC4)CC1 | 5.8%
CCOc1ccc(NC(=O)c2ccccn2)cc1 | -5.1%
O=C1NC(c2ccccc2)N=C2Oc3ccccc3C=C12 (configuration not stated) | u
CC(=O)Nc1nonc1-n1nnc(C(=O)NCc2ccccc2)c1C | 1.4%
Clc1ccc(Cn2nnc(-c3ccccc3)n2)cc1 | -3.1%
CCc1nc(C)cn1S(=O)(=O)c1cc(F)ccc1OC | -12.1%
CN(C)CCCNCCCNC(=O)c1ccncc1 | 7.0%
COc1ccc(Nc2nc(N)c3cc(OC)c(OC)cc3n2)cc1 | 7.7%
Cc1cc(C(c2ccc(O)cc2)c2cc(C)c(O)cc2C)c(C)cc1O | -11.3%
Cc1cccn2c(=O)c(/C=N/O)c(N3CCCC3)nc12 | -5.5%
Cc1ccc2c(c1)sc(-c1ccc(N(C)C)cc1)[n+]2C | -24.3%
Cc1nn(C)cc1C(C(=O)NC1CCCCC1)N(C(=O)c1cnccn1)c1ccc(Oc2ccccc2)cc1 (configuration not stated) | -7.4%
Cc1ccc(-c2nnn(CC(=O)N3CCC(C)CC3)n2)o1 | -0.3%
COc1cc2c(cc1OC)C(c1cccs1)CC(=O)N2 (configuration not stated) | 7.7%
Cn1c(O)c(N=NC(=O)CNC(=O)/C=C/c2ccccc2)c2ccccc21 | -13.4%
Cc1csc2nc(COC(=O)c3ccc(F)cc3)cc(=O)n12 | 9.2%
CCCc1cc(=O)[nH]c(SCC(=O)c2c(N)n(C)c(=O)n(C)c2=O)n1 | 8.8%
Cc1ncoc1C(=O)Nc1cccc(Cl)c1C | 20.1%
Cc1nn(C)c(Oc2ccccc2)c1[N+](=O)[O-] | 11.6%
Cc1cc(O)c(C(=O)/C=C/c2cccc([N+](=O)[O-])c2)c(=O)o1 | -16.8%
CCCn1c(=O)sc2cc(NC(=O)c3ccccc3Cl)ccc21 | 11.2%
O=S(=O)(Nc1cccnc1)c1ccc(Cl)c(C(F)(F)F)c1 | -5.9%
O=C(Nc1ccc(OC(F)(F)F)cc1)c1cnccn1 | -11.0%
Cc1ccc(CNC(=O)CCCNS(=O)(=O)c2cccc3nonc23)cc1 | 1.7%
Cc1ccc(N=C2NC(=O)/C(=C\c3ccc(C)s3)S2)cc1 | -6.2%
COc1ccc(-c2nc3scc(CCNS(=O)(=O)c4ccc(Oc5ccccc5)cc4)n3n2)cc1OC | 10.6%
CCCCOc1cccc(C2c3c(-c4cc(C)ccc4O)n[nH]c3C(=O)N2CCOC)c1 (configuration not stated) | -0.7%
COC(=O)c1cn(CC(=O)NC2CCCCCC2)c2ccccc12 | 4.1%
CC(C)(C)c1ccc(OCc2ccc(C(=O)N/N=C3\CC4CC=CC34)cc2)cc1 (configuration not stated) | -15.2%
COc1ccc(NC(=O)c2cc(C3CC3)nc3c2c(C)nn3-c2ccccc2)cc1OC | 15.6%
Nc1nc(-c2ccccc2)c(C(=O)Nc2ccccc2)s1 | -17.8%
NC(=O)CN1C(=O)C(=O)N(Cc2cccc(Cl)c2)C1=O | 16.0%
Cc1ccc(-n2[nH]c(C)c(C=Nc3ccc4[nH]c(=O)[nH]c4c3)c2=O)cc1 | 8.6%
COc1cc(OC)c(NC(=O)N2CCc3c([nH]c4ccccc34)C2c2ccccc2F)cc1Cl (configuration not stated) | 6.3%
Cc1nn(C(C)C(=O)NCCc2ccccc2)c(=O)c2cc3occc3n12 (configuration not stated) | 10.3%
O=S(=O)(c1ccccc1)N1CCC2(CCCN(Cc3ccncc3)C2)CC1 | u
Cn1cnc([N+](=O)[O-])c1N=C(N)N | 11.2%
CCOc1ccc(NC2CCCCC2NS(=O)(=O)c2ccccc2)cc1 (configuration not stated) | -0.6%
CC(C)CCNC1=CC(=O)CC(c2ccccc2)C1 (configuration not stated) | -3.6%
CCc1nc(Nc2ccc(NC(C)=O)cc2)c2oc3ccccc3c2n1 | -1.0%
Cc1nc(/C(N)=N/OC(=O)Cc2ccccc2)no1 | -5.0%
COc1ccc2cc(C(=O)Nc3ccc(S(N)(=O)=O)cc3)sc(=O)c2c1OC | 11.2%
COc1ccc(OCCNS(=O)(=O)Cc2ccccc2)cc1 | -9.6%
CC(C)CCC(CCN1CCOCC1)c1ccc2c(c1)OCO2 (configuration not stated) | -8.4%
O=C(c1c[nH]c2ccc(S(=O)(=O)N3CCC4(CC3)OCCO4)cc2c1=O)N1CCOCC1 | -6.6%
Cc1ccc(Cn2cccc2/C=N/NC(=S)Nc2ccc(C)cc2)cc1 | -7.7%
O=C(CNC(=O)c1ccc2c(c1)OCCO2)N/N=C/c1cccc(Br)c1 | -15.4%
Cc1cc2c(cc1S(=O)(=O)N1CCN(c3ccccc3)CC1)OCC(=O)N2 | -15.4%

Shown with values ahead of the structure: part of the list above
VDR inhibitor,SMILES
-5.0%,Cc1nc(/C(N)=N/OC(=O)Cc2ccccc2)no1
11.2%,COc1ccc2cc(C(=O)Nc3ccc(S(N)(=O)=O)cc3)sc(=O)c2c1OC
-9.6%,COc1ccc(OCCNS(=O)(=O)Cc2ccccc2)cc1
-8.4%,CC(C)CCC(CCN1CCOCC1)c1ccc2c(c1)OCO2 (configuration not stated)
-6.6%,O=C(c1c[nH]c2ccc(S(=O)(=O)N3CCC4(CC3)OCCO4)cc2c1=O)N1CCOCC1
-7.7%,Cc1ccc(Cn2cccc2/C=N/NC(=S)Nc2ccc(C)cc2)cc1

The results go on.
SMILES | VDR inhibitor
Cc1ccc(-n2ccnc2SCC(=O)N(CC(C)C)C2CCS(=O)(=O)C2)c(C)c1 (configuration not stated) | u
O=C(c1ccc(Br)cc1)c1sc(N2CCOCC2)nc1-c1ccccc1 | u
COc1ccc(CCNC(=O)COC(=O)C2COc3ccccc3O2)cc1 (configuration not stated) | 5.9%
Cc1ccc(-c2n[nH]c(=O)c3ccccc23)c(C)c1 | -14.9%
COc1ccc(S(=O)(=O)N2CCOCC2)cc1C(=O)N1CCCCC1 | 0.7%
COc1ccc(OC)c(/C=C/C(=O)OCC(=O)Nc2ccc3c(c2)OCCO3)c1 | -9.6%
CCOCCCN1C(=O)C2C(C(=O)Nc3ccc(OCC)cc3)C3C=CC2(O3)C1C(=O)NC1CCCCC1 (configuration not stated) | 5.6%
C[C@@H]1CCC[C@@]2(O[C@H](CCO)C[C@H](O)[C@H]2O)O1 | -12.1%
COc1ccc(CCNC(=O)C2CCCN2S(=O)(=O)c2ccc(F)cc2)cc1OC (configuration not stated) | 5.0%
Cc1nn(C(C)(C)C)c(OC(=O)c2cccs2)c1S(=O)(=O)c1ccccc1 | 0.9%
COc1ccc(OC)c(-c2cc(C(=O)NCCN3CCOCC3)no2)c1 | -4.9%
CCC(C(=O)OCC(=O)Nc1ccc(C(N)=O)cc1)c1ccccc1 (configuration not stated) | 0.4%
CCOc1cc(/C=N/NC(=O)C(OC)c2ccccc2)ccc1O (configuration not stated) | 4.7%
CCN(CC(=O)NC(C)(C)C)Cc1nc2c(Br)cc(Br)cc2c(=O)[nH]1 | 12.9%
O=C(CCC(=O)c1ccccc1)NCCc1c[nH]c2ccccc12 | 10.4%
CC(=O)c1cc(C)c(OC(=O)c2ccccc2)c(C)c1 | 9.8%
Cc1cc(C)cc(-n2nnc(C(=O)NCc3ccccc3Cl)c2N)c1 | -4.5%
Cc1cccc(NS(=O)(=O)c2cccc(C(=O)NCC3(N4CCOCC4)CCCCC3)c2)c1 | 0.7%
NS(=O)(=O)c1cc2c(cc1Cl)N[C@@H](C(Cl)Cl)NS2(=O)=O | -1.1%
COc1nc(N)nc(NC23CC4CC(CC(C4)C2)C3)n1 | -15.4%
COc1ccc(OC)c(-n2c(-c3cc(-c4ccc(F)cc4)n[nH]3)n[nH]c2=S)c1 | -7.2%
CC(=O)N1CCc2cc(S(=O)(=O)NC(Cc3ccccc3)C(=O)Nc3ccc(C)cc3C)ccc21 (configuration not stated) | -1.2%
Cc1ccc(CNC(=O)CCCN2C(=O)CCn3nc(-c4cccn4C)cc32)cc1 | 8.2%
CC1=NNC(=O)C1CCC(=O)N/N=C/c1c(Cl)cccc1Cl (configuration not stated) | -13.3%
CC(C)OCCCNC(=O)NC12CC3CC(CC(C3)C1)C2 | 8.7%
COCCNC(=O)c1ccc(-c2csc(C)n2)cc1 | -13.9%
Cc1ccc(-n2nc(CO)c(C(=O)NCCCc3ccccc3)n2)cc1C | 6.8%
CCC/C=N/NC(=O)c1cccc(Br)c1 | -15.1%
Cc1ccc(NC(=O)CN2C(=O)C3CC=CCC3C2=O)cc1S(=O)(=O)N1CCOCC1 (configuration not stated) | 7.8%
O=C(CN1C(=O)COc2ccccc21)NCCN1CCC(Cc2ccccc2)CC1 | 2.3%

Records listed above marked active in VDR inhibitor.
SMILES | VDR inhibitor
COc1cc(C(=S)N2CCN(c3cccc(Cl)c3)CC2)ccc1O | 39.8µM*
